ClpP mod: qHTS Assay for Activators of ClpP; purified B. subtilis ClpP, FRET peptide cleavage, 20 min; Potency, µM (doses to about 57.5 µM), inactives show top-dose activity change, negative = active; 1.9% of 340,000 active; AID 651965, 2013; active = well fitted falling curve with a large enough effect; inconclusive = small, poorly fitted or top-dose-only effect; inactive = no such curve, though single readings can be large or run the other way; also: the source files actives as falling curves though it sought activators and does not explain the sign; nearly all actives have a fitted effect of over 65% in size; many hits overshoot -100%
Target sequence (P80244 whole entry, looked up): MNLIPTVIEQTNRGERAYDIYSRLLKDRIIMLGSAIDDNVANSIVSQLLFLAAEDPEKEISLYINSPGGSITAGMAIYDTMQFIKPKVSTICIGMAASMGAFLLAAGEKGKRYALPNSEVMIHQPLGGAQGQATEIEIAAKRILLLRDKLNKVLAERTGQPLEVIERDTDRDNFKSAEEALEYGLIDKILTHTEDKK
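ClpP 10 microg/mL final, pH 8 Tris/KCl buffer with BSA, glycerol, Tween-20; compound pinned in; FRET-FV substrate; RT 20 min; Ex320/Em430; ΔFRET vs ADEP 5.8 microM, DMSO, no enzyme.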
An asterisk follows results filed as active. Potency is read from the fitted curve at half-maximal effect.

Start of the listing, in advance, 14 compounds:
Screening Cc1c(CC(=O)N2CCCCC2)c(=O)oc2c(C)c3occ(C(C)(C)C)c3cc12 returned ClpP mod -28.8%.
For CCc1ccc(N2C(=O)CSC23C(=O)N(Cc2cccc(OC)c2)c2ccccc23)cc1 (centres undefined) the results were ClpP mod -1.3%.
Screening COc1ccccc1NC(=O)CSc1nnc2c(n1)[nH]c1ccccc12 returned ClpP mod 2.1%.
Screening COc1cccc(C2C=C(c3ccc(C)cc3)Nc3c(C(=O)Nc4ccc(F)cc4)cnn32)c1OC (centres undefined) returned ClpP mod -8.2%.
Cc1ccc(NCc2cccn2-c2nnc(N3CCC(C(=O)NCc4ccccc4C)CC3)s2)cc1 was read as ClpP mod 0.8%.
For CCOC(=O)c1ccc(N2C(=O)c3[nH]nc(-c4ccc(C)cc4)c3C2c2cccs2)cc1 (centres undefined) the results were ClpP mod 10.5%.
For Cn1c(=O)cc(SCC(=O)N2CCN(c3ccc(F)cc3)CC2)c2ccc(Cl)cc21 the results were ClpP mod -0.5%.
Clc1ccc(-c2noc(-c3cccnc3NCc3ccco3)n2)cc1 was read as ClpP mod inconclusive.
For Cc1ccccc1C(=O)Nc1cccc(NC(=O)c2ccc(C(C)(C)C)cc2)c1 the results were ClpP mod -29.0%.
CCOc1ccc(N(CC)C(=O)c2cc3c(s2)-c2ccc(Cl)cc2SC3)cc1 was read as ClpP mod 1.3%.
For CN(C)c1ccc(/C=C/c2sc3ccccc3[n+]2Cc2ccccc2)cc1 the results were ClpP mod 3.3%.
Screening Cc1ccccc1CN1CCC(CNc2ncnc3onc(-c4ccc(F)cc4)c23)CC1 returned ClpP mod -2.7%.
For COc1ccc(Nc2c(-c3cc(Br)ccc3O)nc3ncccn23)cc1OC the results were ClpP mod -0.6%.
For Cc1ccc(OCC(=O)Nc2cccc(OCc3cc(=O)n4cccc(C)c4n3)c2)cc1C the results were ClpP mod -28.5%.

Results, previewed entries included:
Screening Cc1c(CC(=O)N2CCCCC2)c(=O)oc2c(C)c3occ(C(C)(C)C)c3cc12 returned ClpP mod -28.8%.
For CCc1ccc(N2C(=O)CSC23C(=O)N(Cc2cccc(OC)c2)c2ccccc23)cc1 (centres undefined) the results were ClpP mod -1.3%.
Screening COc1ccccc1NC(=O)CSc1nnc2c(n1)[nH]c1ccccc12 returned ClpP mod 2.1%.
Screening COc1cccc(C2C=C(c3ccc(C)cc3)Nc3c(C(=O)Nc4ccc(F)cc4)cnn32)c1OC (centres undefined) returned ClpP mod -8.2%.
Cc1ccc(NCc2cccn2-c2nnc(N3CCC(C(=O)NCc4ccccc4C)CC3)s2)cc1 was read as ClpP mod 0.8%.
For CCOC(=O)c1ccc(N2C(=O)c3[nH]nc(-c4ccc(C)cc4)c3C2c2cccs2)cc1 (centres undefined) the results were ClpP mod 10.5%.
For Cn1c(=O)cc(SCC(=O)N2CCN(c3ccc(F)cc3)CC2)c2ccc(Cl)cc21 the results were ClpP mod -0.5%.
Clc1ccc(-c2noc(-c3cccnc3NCc3ccco3)n2)cc1 was read as ClpP mod inconclusive.
For Cc1ccccc1C(=O)Nc1cccc(NC(=O)c2ccc(C(C)(C)C)cc2)c1 the results were ClpP mod -29.0%.
CCOc1ccc(N(CC)C(=O)c2cc3c(s2)-c2ccc(Cl)cc2SC3)cc1 was read as ClpP mod 1.3%.
For CN(C)c1ccc(/C=C/c2sc3ccccc3[n+]2Cc2ccccc2)cc1 the results were ClpP mod 3.3%.
Screening Cc1ccccc1CN1CCC(CNc2ncnc3onc(-c4ccc(F)cc4)c23)CC1 returned ClpP mod -2.7%.
For COc1ccc(Nc2c(-c3cc(Br)ccc3O)nc3ncccn23)cc1OC the results were ClpP mod -0.6%.
For Cc1ccc(OCC(=O)Nc2cccc(OCc3cc(=O)n4cccc(C)c4n3)c2)cc1C the results were ClpP mod -28.5%.
`CCc1ccccc1NC(=O)CN1C(=O)CCc2cc(S(=O)(=O)N3CCCCC3)ccc21` gave ClpP mod -2.4%.
For CC(=O)c1cccc(NC(=O)c2ccc3c(c2)N(Cc2ccc(C)cc2)CCS3)c1 the results were ClpP mod 4.3%.
Screening Cc1cc(C)cc(N2CC(c3nnc(NC(=O)c4ccco4)s3)CC2=O)c1 (centres undefined) returned ClpP mod -1.7%.
Cc1cnc(-c2nc3ccccc3n2C(C(=O)NC(C)(C)C)c2ccccc2)cn1 (centres undefined) was read as ClpP mod inconclusive.
For Cc1ccc(C(=O)N2CCN(c3ccccc3)CC2)cc1NC(=O)c1nsc2ccccc12 the results were ClpP mod 8.4%.
For Cc1cccc(C)c1NC(=O)C(c1ccc(C#N)cc1)n1c(=O)c(-c2ccco2)nc2ccccc21 (centres undefined) the results were ClpP mod 4.8%.
`CCN(C(=O)c1cc2cc(Br)cc(OC)c2oc1=O)c1ccccc1` gave ClpP mod -0.1%.
COc1ccc(N(CC(=O)NC(C)c2ccccc2)S(=O)(=O)c2c(C)nn(C)c2C)cc1 (centres undefined) was read as ClpP mod 4.7%.
O=C(NC1CCCCC1)c1ccc2c(c1)N(Cc1ccccc1F)C(=O)c1ccccc1S2 was read as ClpP mod -0.7%.
C=CCc1ccccc1OCCSc1nc(-c2ccc(C(C)(C)C)cc2)nc2cc(=O)[nH]n12 was read as ClpP mod -1.1%.
For CCCCCCCCCCCCCCCC[n+]1ccc(C)cc1 the results were ClpP mod -0.6%.
`O=C(CNC(=O)C1CCCCC1)OCC(=O)c1ccc(C2CCCCC2)cc1` gave ClpP mod -0.2%.
Cc1ccc(S(=O)(=O)N2[C@@H](Cc3ccccc3)CO[C@H]2CC(=O)c2ccccc2)cc1 was read as ClpP mod -10.0%.
`Cc1ccc(-c2noc(CN(C(=O)COc3cc(C)cc(C)c3C)C(C)C)n2)cc1` gave ClpP mod -4.9%.
For CN(C)S(=O)(=O)N(CC(=O)Nc1ccc(Br)cc1F)c1ccccc1 the results were ClpP mod -4.1%.
CCc1cccc(N2C(=O)N(CC(=O)NCc3cccc(OC)c3OC)c3ccccc3S2(=O)=O)c1 was read as ClpP mod -1.0%.
For Cc1ccccc1OCC(=O)Nc1ccc(-c2nc3cc(Cl)cc(Cl)c3o2)cc1 the results were ClpP mod -10.1%.
Screening CCOc1cc(C2c3c(oc4ccccc4c3=O)C(=O)N2c2ccccn2)ccc1O (centres undefined) returned ClpP mod 1.0%.
For COC(=O)c1ccc(NC(=O)CN(c2cccc(C(F)(F)F)c2)S(C)(=O)=O)cc1 the results were ClpP mod 2.1%.
`Cc1ccc(S(=O)(=O)N2CC3(O)CN(C(=O)OC(C)C)N(C(=O)OC(C)C)CC3(OC(=O)NC3CC3)C2)cc1` (centres undefined) gave ClpP mod 1.3%.
For COCCNC(=O)c1cc2n(n1)CCCN(Cc1ccc(C)cc1)C2=O the results were ClpP mod -1.2%.
COC(=O)C[C@H]1CC[C@H](NS(=O)(=O)c2cn(C)cn2)[C@@H](CO)O1 was read as ClpP mod -4.1%.
`O=C(CCn1c(=O)c2sccc2n(Cc2ccc(F)cc2Cl)c1=O)NCc1ccc2c(c1)OCO2` gave ClpP mod 2.1%.
Screening COc1cccc(N(CC(=O)N2CCC(C)CC2)S(=O)(=O)c2ccc(C)cc2)c1 returned ClpP mod -1.6%.
For COc1ccc(OC)c(S(=O)(=O)NCc2cccn2Cc2cccc(C)c2)c1 the results were ClpP mod -1.3%.
For Fc1ccc(N2CCN(c3nc4ccccc4c4nc(-c5cccnc5)nn34)CC2)cc1 the results were ClpP mod -8.5%.
Cc1nnc2c3ccccc3nc(Nc3ccc(F)cc3Cl)n12 was read as ClpP mod 0.0%.
Screening CC(=O)N1CCN(c2nc3c(C)ccc(Cl)c3s2)CC1 returned ClpP mod -1.2%.
Screening Cc1ccc(OCCSc2nnc(-c3cccs3)o2)cc1 returned ClpP mod inconclusive.
Screening COc1ccc(S(=O)(=O)NCCc2sc(-c3ccccc3)nc2C)cc1OC returned ClpP mod 4.2%.
For Cc1cnc2ccc(I)cc2c1/C=C/c1ccc(N(C)C)cc1 the results were ClpP mod -0.1%.
Screening CCOc1ccc(N2CC(C)Cn3c2nc2c3c(=O)n(CC(=O)O)c(=O)n2C)cc1 (centres undefined) returned ClpP mod -6.1%.
CCOC(=O)c1ccccc1NC(=O)c1nn(-c2ccc(C)cc2)c(=O)n(C)c1=O was read as ClpP mod -1.4%.
For Cc1[nH]c2ccccc2c1/C=C/c1c[nH]c2ccccc12 the results were ClpP mod -5.0%.
For CC(C)c1ccc(NC(=O)C(C)N(c2ccccc2)S(C)(=O)=O)cc1 (centres undefined) the results were ClpP mod -2.7%.
Screening CCCCCCNc1ccc(/C=C/c2ccnc3ccccc23)cc1 returned ClpP mod -2.2%.
Screening O=C(CN1C(=O)CCn2nc(-c3ccccc3)cc21)NCc1ccccc1 returned ClpP mod -0.6%.
`CCOc1ccc(NC(=O)c2cc3c(=O)n4cccc(C)c4nc3s2)cc1` gave ClpP mod -2.9%.
COc1cc(-c2nnc(SCC(=O)Nc3ccc(F)c(Cl)c3)o2)cc(OC)c1OC was read as ClpP mod -3.7%.
COc1ccc2c(c1)c(=O)c(C(=O)c1ccc(F)cc1)cn2CC(=O)Nc1ccc2c(c1)OCCO2 was read as ClpP mod -2.5%.
COc1ccccc1OCC(=O)NCC(c1ccc(Cl)cc1)N1CCCCC1 (centres undefined) was read as ClpP mod -0.7%.
CC(C)(C)NC(=O)c1ccc2nc(CCc3ccccc3)oc2c1 was read as ClpP mod -1.6%.
Screening COc1cccc(/C=C/c2onc(C)c2S(=O)(=O)N2CCC(C(=O)N3CCC(C)CC3)CC2)c1 returned ClpP mod 31.6µM*.
COc1cccc(CNC(=O)CN2C(=O)CCCc3ccccc32)c1OC was read as ClpP mod -1.4%.
Screening CC(C)C[C@H]1CN(CCCC[C@@H]2CNC(=O)C(=O)N2CC2CCCCC2)C(=O)C(=O)N1CC1CCCCC1 returned ClpP mod 0.2%.
`Cc1cccc(NC(=O)N2CCC(CN3CCOCC3)CC2)c1C` gave ClpP mod 1.1%.
`O=C(C[n+]1cccc(Br)c1)c1ccc(Br)cc1` gave ClpP mod 1.0%.
CCOc1ccc(-c2cc(C(=O)NCCCOC)c3c(-c4ccc(CC)cc4)[nH]nc3n2)cc1 was read as ClpP mod 4.3%.
`COc1ccc(-n2nc3ccc(NC(=O)c4cccc(OCCC(C)C)c4)cc3n2)cc1` gave ClpP mod 4.1%.
For COc1ccc(OC)c(NC(=O)c2c(NCc3ccc(OC)c(OC)c3)sc3c2CCC(C)C3)c1 (centres undefined) the results were ClpP mod -0.4%.
For Cc1cc(C)cc(NC(=O)c2cc(S(=O)(=O)N3CCCCCC3)cn2C)c1 the results were ClpP mod 4.4%.
Screening N#Cc1nc(-c2ccc(COc3ccccc3)o2)oc1NCc1ccccc1 returned ClpP mod 20µM*.
O=C(c1cc2c(c(-c3cccc(-c4ccncc4)c3)n1)[C@@H](CCO)N(C(=O)c1ccc3c(c1)OCO3)C2)N1CCOCC1 was read as ClpP mod 1.8%.
Screening CCC(C(=O)Nc1c(C)cccc1C)n1c(-c2ccc(-c3ccccc3)cc2)nc2ccccc21 (centres undefined) returned ClpP mod 4.0%.
For CC(=O)Nc1ccccc1OCCCN1CCC(C(O)(c2ccccc2)c2ccccc2)CC1 the results were ClpP mod 1.9%.
Screening Cc1cc(C)n2nc(CNC(=O)c3c(F)cccc3F)nc2n1 returned ClpP mod -0.2%.
`O=C(NCC(c1cccnc1)N1CCc2ccccc21)c1ccccc1Br` (centres undefined) gave ClpP mod 3.7%.
For COC(=O)[C@]12CCCCC=C1N(CCc1ccc(OC)c(OC)c1)C(=O)[C@H](CC(=O)NCC13CC4CC(CC(C4)C1)C3)C2 the results were ClpP mod -2.2%.
Nc1c(-c2nc(-c3ccc(Cl)cc3)cs2)c2ccccn2c1C(=O)c1ccc2c(c1)OCO2 was read as ClpP mod 0.7%.
For O=C(Nc1ccc2nc(-c3ccccn3)c(-c3ccccn3)nc2c1)N1CCCC1 the results were ClpP mod -9.7%.
For CC1(C(=O)Nc2ccc3c(c2)OCCO3)CSCC(=O)N1Cc1ccco1 (centres undefined) the results were ClpP mod 1.8%.
C[C@H](c1ccccc1)N1C[C@@H](COCc2ccccc2)Oc2cc(N3CC[C@H](N(C)C)C3)ccc2S1(=O)=O was read as ClpP mod -8.7%.
For COc1ccc(CCn2c3c(c(=O)[nH]c2=S)CN(C(C)C)CN3)cc1OC the results were ClpP mod -5.0%.
`Cc1c(C(=O)NCc2ccccc2)oc2ccc(S(=O)(=O)N3CCC(C)CC3)cc12` gave ClpP mod -1.2%.
For Cc1ccc(Cn2cc(CCC(=O)NCc3ccc(OC(C)C)cc3)c3ccccc32)cc1 the results were ClpP mod -10.1%.
CCOc1ccc(-n2c(=O)c3c(C)c(C)sc3n(CC(=O)NCCc3ccccc3)c2=O)cc1 was read as ClpP mod -0.7%.
O=C(CSc1nnc(CNC(=O)c2cccc(F)c2)n1-c1ccccc1)Nc1ccccc1F was read as ClpP mod -4.9%.
For CC(C)(C)c1ccc(S(=O)(=O)N2CCC(Oc3ccc(-n4cnnn4)cc3)CC2)cc1 the results were ClpP mod 0.1%.
For Cc1cccc(C)c1-n1nnnc1C(c1ccnc2ccccc12)N1CCCC1 (centres undefined) the results were ClpP mod -4.4%.
`CCn1c(CC2C(=O)Nc3ccccc32)nc2ccccc2c1=O` (centres undefined) gave ClpP mod -2.3%.
Screening CC(C)(C)c1ccc(Oc2ccc(NC(=O)CCC(=O)OCC(=O)c3ccccc3)cc2)cc1 returned ClpP mod 0.4%.
For O=C1CC(c2nnc(Cc3ccc(F)cc3)o2)CN1c1ccccc1 (centres undefined) the results were ClpP mod -2.2%.
Screening COc1ccc(OCC(=O)NCCS(=O)(=O)N2CCN(c3cccc(Cl)c3)CC2)cc1 returned ClpP mod -1.3%.
For COc1ccccc1-c1noc(-c2ccc(NC(C)C)c([N+](=O)[O-])c2)n1 the results were ClpP mod 1.1%.
Cc1ccc(CCNC(=O)CCc2cn(Cc3ccccc3C)c3ccccc23)cc1 was read as ClpP mod inconclusive.
Screening CSc1cccc(NC(=O)Nc2ccccc2OCc2cc(=O)n3cc(C)ccc3n2)c1 returned ClpP mod 273.7%.

These rows are one share of the data (hit frequency here may not be typical).
